# Ecoli rRNA inh: inhibits bacterial ribosomal RNA function over humanized ribosomes; GFP signal change (wild-type ribosome), % (concentration not given with the values); 1.6% of 350,000 active; E. coli WT GFP vs humanized-ribosome RFP mutants, fluorescence, 24 h; stronger effect = lower value; DMSO median 0, no signal -100; AID 720706;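 active = significant combined selectivity score with lowered wild-type GFP, culture density cut under 30%, mutant RFP and density less affected; inactive = any of these conditions unmet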; note: one replicate is shown; some compounds called inactive have numbers as strong as hits
# T cruzi inh: blocks replication of Trypanosoma cruzi; T. cruzi beta-gal in NIH3T3, luminescence, 90 h; inhibition, % (concentration not given with the values); 1.4% of 300,000 active; AID 1885;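 active = mean inhibition across valid replicates above about 55%, limit read from the data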;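 note: signal also drops with host cell toxicity which is not excluded here; 0% = plate median of DMSO wells and 100% = zero luminescence signal; higher percent means less beta-gal luminescence so fewer parasites; stock transfer was 50 nL into about 50 µL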
# AF4-AF9 inh: inhibitors of human MLL-AF4/AF9 interaction | P42568 | AlphaScreen, biotin-AF4 peptide binding to FLAG-AF9 | inhibition, % at 10 µM | 0.47% of 350,000 active | AID 651704;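 active = every replicate reaching a set inhibition limit, whatever the replicate mean, cut at about 25% in these data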;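 note: 0% = plate neutral control median and 100% = total signal loss; the record names both 10 and 1 µM as test concentration; the first replicate is given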
# Target sequence (P42568 whole entry, looked up): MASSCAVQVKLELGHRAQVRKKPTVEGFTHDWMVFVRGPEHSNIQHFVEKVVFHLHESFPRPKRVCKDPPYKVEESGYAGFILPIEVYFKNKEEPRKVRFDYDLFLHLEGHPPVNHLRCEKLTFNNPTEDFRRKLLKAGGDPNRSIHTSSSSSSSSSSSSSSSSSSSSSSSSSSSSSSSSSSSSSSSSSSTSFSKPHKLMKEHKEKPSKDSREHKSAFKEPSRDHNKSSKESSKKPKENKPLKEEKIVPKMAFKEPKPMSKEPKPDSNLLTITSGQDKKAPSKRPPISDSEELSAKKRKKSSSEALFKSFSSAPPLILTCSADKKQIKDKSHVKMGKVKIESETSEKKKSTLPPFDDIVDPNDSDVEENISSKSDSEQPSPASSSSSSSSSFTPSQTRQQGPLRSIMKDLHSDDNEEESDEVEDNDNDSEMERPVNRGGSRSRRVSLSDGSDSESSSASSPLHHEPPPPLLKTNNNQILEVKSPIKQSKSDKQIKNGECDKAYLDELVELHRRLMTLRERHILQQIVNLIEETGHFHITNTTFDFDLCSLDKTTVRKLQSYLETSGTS
# FGF22 binding: FGF22 (human) thermal shift binding; recombinant FGF22 thermal shift, SYPRO orange fluorescence; percent of sucrose octasulfate shift, DMSO zero; calls only at 9.99 µM; 1.5% of 340,000 active; AID 651658;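 active = melting point raised past a set limit in the mean and every replicate; three in four hits are not shown here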
# Target sequence (Q9HCT0 whole entry, looked up): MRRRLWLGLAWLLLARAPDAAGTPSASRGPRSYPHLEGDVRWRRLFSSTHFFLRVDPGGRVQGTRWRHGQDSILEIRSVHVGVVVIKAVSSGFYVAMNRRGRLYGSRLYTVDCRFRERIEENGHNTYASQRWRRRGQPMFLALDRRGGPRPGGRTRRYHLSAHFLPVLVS
# UCH37 DUB inh: blocks the human deubiquitinase UCH37; Q9Y5K5; 0.33% of 330,000 active; inhibition, % (concentration not given with the values); AID 588478; purified proteasome/UCH37, Ub-AMC cleavage fluorescence;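 active = mean of two replicates above 20%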;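 note: 0% = compound-free wells with enzyme and 100% = wells lacking proteasome; stock transfer was 100 nL into about 20 µL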
# Target sequence (Q9Y5K5 whole entry, looked up): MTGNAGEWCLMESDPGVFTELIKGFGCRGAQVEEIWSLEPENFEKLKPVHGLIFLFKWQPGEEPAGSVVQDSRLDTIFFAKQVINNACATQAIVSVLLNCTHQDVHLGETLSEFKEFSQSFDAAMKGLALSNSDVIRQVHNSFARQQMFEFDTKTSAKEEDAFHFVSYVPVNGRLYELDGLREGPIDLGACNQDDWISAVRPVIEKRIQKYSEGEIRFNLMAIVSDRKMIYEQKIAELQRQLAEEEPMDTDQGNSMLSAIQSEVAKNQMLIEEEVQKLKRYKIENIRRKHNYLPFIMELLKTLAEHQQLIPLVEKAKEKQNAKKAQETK
#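 Test system – human UCH37 enzyme supplied as purified proteasome complex · Incubation – 30 min preincubation with enzyme, 25 min cleavage at room temperature · Detection – AMC fluorescence from Ub-AMC cleavage, excitation 355 nm, emission 460 nm · Benchmarks – no-proteasome wells (full inhibition) and compound-free wells (no inhibition)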
# Beta apoptosis: blocks beta cell apoptosis; INS-1E cytokine-induced death, ATP luminescence, 48 h; percent of positive-control rescue, neutral wells zero; protection from apoptosis, % (concentration not given with the values); 0.8% of 300,000 active; AID 435005;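 active = all replicates at 75% or more, or half of them and the mean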;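 note: 0% = cytokine-treated negative control wells and 100% = positive control rescue; higher means more ATP so stronger rescue from cytokine killing; wells of about 40 µL received 100 nL stock; the first replicate is given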
# A1 inh: inhibitors of the anti-apoptotic protein A1, read as caspase activation. MEF A1-2A-BIM cells, Caspase-Glo 3/7 luminescence, 3 h; percent of clofoctol response, vehicle zero. caspase activation, % (test concentration not listed). 0.066% of 330,000 active;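 active = over half of replicate activation scores above 10%, or exactly half above 10 with the replicate mean above 10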;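 note: wells of about 30 µL received 50 nL stock; many hits fall short of the cut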
# E coli growth: inhibitors of Escherichia coli growth. 0.21% of 330,000 active. AID 1053175. OD600, 23 h; stronger effect = lower value. OD600 absorbance (no concentration beside the values);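 active = OD600 absorbance below the run mean of sample wells minus 3.6 SD, in any replicate, cut at about 0.56 in these data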;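 note: stock transfer was 300 nL into about 60 µL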
# Ecoli rRNA inh OD600: second read-out of Ecoli rRNA inh, no call of its own (marks repeat the call); OD600 change, %; measured here: OD600 growth;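 optical density of the mix in the first replicate; 0 = DMSO median and -100 = no signal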
# Ecoli rRNA inh RFP: second read-out of Ecoli rRNA inh, no call of its own (marks repeat the call); RFP signal change, %; measured here: RFP humanized mutant strains;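 first replicate; 0 = DMSO median and -100 = no signal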
# * = called active by the depositor; i = inactive; . = not tested or not shown. The list is partial. The share of hits here may be higher or lower than overall.
Compound	Ecoli rRNA inh	Ecoli rRNA inh OD600	Ecoli rRNA inh RFP	T cruzi inh	AF4-AF9 inh	FGF22 binding	UCH37 DUB inh	Beta apoptosis	A1 inh	E coli growth
O=C(NCc1ccc(F)cc1)c1cc(-c2ccncc2)nc2ccccc12	5	3	-0.1	26	1.3	i	0.1	-2	0.0	0.65
O=C(NCc1ccco1)C1CC(O)CN1C(=O)Nc1ccccc1 (centres undefined)	3	12	-2.0	16	-0.1	i	2.9	4	-1.0	0.66
CCOc1cccc(-c2c(C(=O)N/N=C/c3ccc(C)o3)nnn2-c2nonc2N)c1	-2	-9	1.2	0	0.5	i	.	.	1.2	.
CCCCCn1c(=O)[nH]c2cc(C(=O)O)ccc2c1=O	.	.	.	-9	.	.	-12	-4	-0.1	0.68
CC(=O)N1CC(=O)N(OCc2ccccc2)C1c1ccc(Cl)cc1Cl (centres undefined)	5	4	4.5	7	3.0	i	1.4	0	0.7	0.64
COc1cccc(-c2nc(CS(=O)CC(=O)NCc3ccc(F)cc3)c(C)o2)c1 (centres undefined)	15	11	3.3	12	1.5	i	2.7	-9	1.5	0.66
Cc1cc(Cl)ccc1OC(C)C(=O)OCC(=O)Nc1ccc2[nH]c(=O)[nH]c2c1 (centres undefined)	-13	-14	-0.1	.	1.8	i	0.9	-2	0.9	0.69
CC1CCN(C(=O)COC(=O)c2ccc(Cl)nc2)CC1	2	-7	-2.2	.	-1.5	i	1.9	-10	0.9	0.66
CC(C)COP(=O)(c1ccc(N(C)C)cc1)C(Nc1ccccc1)c1cccnc1 (centres undefined)	-2	-6	9.5	-1	3.5	i	-1.8	-3	-0.5	0.7
CCc1nc(Nc2ccc(O)cc2)c2oc3ccccc3c2n1	-7	-16	-1.8	-10	1.6	i	-2.2	6	0.7	0.65
CN1CCN/C1=C(/C(Cl)=C(Cl)Cl)[N+](=O)[O-]	30	19	1.8	-16	-1.2	i	8.0	.	-0.5	0.67
CC(C)C1C(c2ccccc2)N(C)C(c2ccccc2)CC1(O)c1ccccc1 (centres undefined)	-30*	-15*	3.7*	58*	5.6	i	3.8	45	0.6	0.7
CC1(c2ccccc2)NC(=O)N(CC(=O)Nc2ccc(S(N)(=O)=O)cc2)C1=O (centres undefined)	.	.	.	-19	-0.4	i	0.9	-4	0.6	0.67
COc1ccc(/C=C(/NC(C)=O)C(=O)O)cc1	.	.	.	-13	.	.	-4.4	-4	0.1	0.76
COc1ccc(CC(=O)N(C)Cc2cccc(OC)c2OC)cc1S(=O)(=O)N1CCOCC1	6	6	-1.6	3	17	i	0.4	-2	0.8	0.68
O=C(C1CCN(C2CCN(C/C=C/c3ccccc3)CC2)CC1)N1CCOCC1	15	11	2.5	4	5.2	i	1.2	-8	0.1	0.66
COc1ccc(C(=O)CSc2nnc(CC(=O)Nc3ccccc3OC)n2C)cc1	-12	-5	0.8	-6	1.0	i	-1.0	0	0.9	0.64
CCOC(=O)c1nnc(-c2ccccc2)nc1N1CC(C)OC(C)C1 (centres undefined)	-6	3	0.9	-4	-0.9	i	0.7	-2	-0.2	0.7
Cc1[nH]nc2c1C1(C(=O)Nc3ccc([N+](=O)[O-])cc31)C(C#N)=C(N)O2 (centres undefined)	.	.	.	-14	.	.	4.2	.	0.0	0.67
CCC(C)[C@H](NC(=O)Nc1ccc(C)cc1C)C(=O)O (some centres undefined)	9	6	-3.2	-4	-16	i	2.9	-6	-0.4	0.68
COc1ccc(/C=C(/NC(=O)c2ccccc2)C(=O)NCCCn2ccnc2)cc1OC	3	12	-2.1	-26	-6.7	i	9.4	.	0.7	0.68
C=C(C)CNC(=S)N/N=C(\C)c1cccc(NC(C)=O)c1	-6	-7	-0.9	-1	1.8	i	.	.	.	.
CC(=O)C(/C=N/c1ncc(C(F)(F)F)cc1Cl)=C(\C)O	-9	0	-5.0	-3	-1.5	i	7.8	-7	2.0	0.64
CCOC(=O)C1(Cc2ccccc2)CCCN(C2CCN(C(C)=O)CC2)C1 (centres undefined)	15	6	8.9	5	4.5	.	-0.5	-7	0.4	0.69
O=C(NN1C(=O)NC2(CCCCC2)C1=O)c1cc2cc(Cl)ccc2o1	-7	-7	3.2	.	-1.9	i	1.2	-5	0.9	0.68
O=C(CCCSc1nc2ccccc2s1)NC1=NCCS1	.	.	.	-2	.	.	1.8	-8	.	0.62
Cc1ccc(NC(=O)CN2C(=O)COc3ccc(C)cc32)nc1	.	.	.	-8	.	.	6.4	-1	0.3	0.69
CCC(C)C(=O)Nc1nnc(SCC(=O)NC2CCCC2)s1 (centres undefined)	1	2	-2.9	-7	1.4	i	4.4	-3	0.1	0.71
Cc1cc(C(C)(C)C)cc(C)c1COC(=O)c1cccnc1	-4	-4	-0.7	19	4.6	i	-2.6	-3	-1.5	0.66
Nc1nonc1-n1nnc(C(=O)N/N=C/c2cccc(F)c2)c1-c1ccccc1	0	-5	0.3	2	-2.3	i	.	-6	0.6	.

# Exported field by field: entries from further up
> O=C(NN1C(=O)NC2(CCCCC2)C1=O)c1cc2cc(Cl)ccc2o1
  Ecoli rRNA inh: -7
  Ecoli rRNA inh OD600: -7
  Ecoli rRNA inh RFP: 3.2
  T cruzi inh: .
  AF4-AF9 inh: -1.9
  FGF22 binding: i
  UCH37 DUB inh: 1.2
  Beta apoptosis: -5
  A1 inh: 0.9
  E coli growth: 0.68

> O=C(CCCSc1nc2ccccc2s1)NC1=NCCS1
  Ecoli rRNA inh: .
  Ecoli rRNA inh OD600: .
  Ecoli rRNA inh RFP: .
  T cruzi inh: -2
  AF4-AF9 inh: .
  FGF22 binding: .
  UCH37 DUB inh: 1.8
  Beta apoptosis: -8
  A1 inh: .
  E coli growth: 0.62

# Continuation:
Compound	Ecoli rRNA inh	Ecoli rRNA inh OD600	Ecoli rRNA inh RFP	T cruzi inh	AF4-AF9 inh	FGF22 binding	UCH37 DUB inh	Beta apoptosis	A1 inh	E coli growth
O=C(O)c1ccc2c(c1)C(=O)N(Cc1ccco1)C2=O	1	3	3.3	-12	0.2	i	6.4	-5	1.8	0.61
CCc1nc(SCC(=O)NNC(=O)C(C)C)c2ccccc2n1	.	.	.	-4	.	.	5.9	-6	1.8	0.67
Cc1ccc(S(=O)(=O)c2cc3c(=O)n4ccccc4nc3n(CCCN3CCOCC3)c2=N)cc1C	0	2	22	12	19	i	-95	1	0.5	0.68
Cc1ccc(C)c(NC(=S)N(CCc2ccncc2)C(C)C)c1	4	4	-4.1	2	-0.3	i	3.2	-6	0.9	0.7
COc1ccc(CNC(=O)N2CCc3ccccc3C2)cc1	0	-9	-1.4	0	-4.0	i	4.4	-10	-0.1	0.68
CC(=O)CCc1oc2c([N+](=O)[O-])cccc2c1-c1ccc(C)o1	-3	-1	-1.3	12	4.3	i	4.4	1	-0.1	0.68
CC(C)CNC(=O)NC(=O)COc1ncnc2sccc12	.	.	.	-19	.	.	-0.9	-3	0.2	0.68
COc1cc2c(cc1OC)CN(C(=O)C(CCSC)NS(=O)(=O)c1ccc(C)cc1)CC2 (centres undefined)	5	8	-0.3	0	4.9	i	4.5	-8	1.4	0.67
Cc1c(O)ccc(-c2n[nH]c(C(=O)O)c2-c2nc3ccccc3s2)c1O	-3	-5	11	-10	1.3	i	0.2	-2	1.2	0.69
COc1ccccc1-c1sc2ccccc2c1-c1ccc2c(c1)OCO2	11	-10	-13	5	5.2	i	.	9	0.2	.
FC(F)(F)c1ccc(Nc2nnnc3ccccc23)cc1	21	20	2.3	15	-1.3	.	-0.5	.	-0.6	0.7
CNc1nc2ccccc2n(C)c1=O	21	14	-0.5	-8	-0.7	i	-10	-6	0.0	0.66
CC(C)N(CCO)C(=O)C(c1ccccc1)c1ccccc1	.	.	.	4	.	.	1.6	-2	0.1	0.71
O=C(OCC(=O)N1CCOCC1)c1cc2ccccc2oc1=O	7	9	-0.8	.	-1.7	i	-33	4	0.3	0.66
CCOC(=O)C1CCN(C(=O)CNC(=O)c2nn(-c3ccc(OC)c(Cl)c3)c(=O)c3ccccc23)CC1	-2	-5	11	1	1.5	i	-3.7	-3	-1.0	0.7
CC(C)c1ccccc1OCC(=O)Nc1ccc2[nH]ncc2c1	-22	-26	-1.8	3	-8.5	i	-0.9	-1	-0.2	0.67
CCC(C(=O)NC1CCCCC1)N(Cc1cccs1)C(=O)CCC(=O)Nc1cc(C)on1 (centres undefined)	0	-8	-0.9	7	-4.8	i	6.8	-4	0.0	0.66
O=C(Nc1c(C(=O)NCc2ccco2)cnn1-c1ccccc1)c1cccc(F)c1	.	.	.	-6	.	.	-0.7	-3	-0.2	0.65
Cc1ccc(N2C(=O)N(CC(=O)Nc3cccc([N+](=O)[O-])c3C)C(=O)C2C)cc1 (centres undefined)	1	-7	0.9	-6	0.2	i	0.9	0	-0.8	0.61
COc1cc(Cl)ccc1OCc1cc(C(=O)N(C)Cc2cn(C)nc2C)no1	-3	-13	-0.9	-11	-1.0	i	3.4	0	0.1	0.71
O=C(CSc1nc(=O)n2ccccc2n1)NCc1ccc2c(c1)OCO2	7	7	-2.0	-11	-0.4	i	3.1	.	-1.0	0.61
COC(=O)CN1C(=O)COc2ccc(Cl)cc21	8	18	-1.3	-9	0.2	i	2.3	-14	0.3	0.72
CCOc1ccccc1NCc1nnc(-c2ccccc2)o1	-18	-26	-2.0	3	-2.0	i	4.4	1	-0.2	0.63
O=C(NCc1ccco1)C1CCN(c2nc3ccccc3n2Cc2ccccc2F)CC1	-1	-22	-5.1	-3	-1.4	i	6.2	4	0.5	0.73
CCCC1(C(=O)OC)NC(c2ccc(OC)cc2OC)C2C(=O)N(c3cccc(C(C)=O)c3)C(=O)C21 (centres undefined)	7	5	-0.4	20	-0.1	i	5.2	4	0.3	0.69
CCOC(=O)c1ccc(NC(=O)C(CC)CC)cc1	.	.	.	-2	.	.	-0.1	.	-0.5	0.72
OC(CN1CCN(Cc2ccccc2)CC1)c1ccc(F)cc1 (centres undefined)	5	9	1.0	46	7.2	i	-1.7	0	-0.3	0.61
COc1ccc(-n2c(Cc3cccn3C)nnc2SCC(=O)NC2CCCC2)cc1	0	5	0.0	-4	4.0	i	2.0	-3	-0.5	0.73
O=C(c1ccc(NS(=O)(=O)c2cccc3cccnc23)cc1)N1CCOCC1	.	.	.	-13	.	.	1.6	0	0.4	0.78
O=C(NC(=S)Nc1nc2ccccc2s1)c1cccs1	-1	-3	9.4	1	2.9	i	4.0	.	-4.4	0.72
COc1ccc(F)cc1CN1CCN(C(=O)c2ccc(S(=O)(=O)N3CCCCCC3)cc2)CC1	12	10	1.5	.	3.9	i	4.4	.	.	0.68

# Four records picked at random from the list so far:
Compound	Ecoli rRNA inh	Ecoli rRNA inh OD600	Ecoli rRNA inh RFP	T cruzi inh	AF4-AF9 inh	FGF22 binding	UCH37 DUB inh	Beta apoptosis	A1 inh	E coli growth
COC(=O)CN1C(=O)COc2ccc(Cl)cc21	8	18	-1.3	-9	0.2	i	2.3	-14	0.3	0.72
OC(CN1CCN(Cc2ccccc2)CC1)c1ccc(F)cc1 (centres undefined)	5	9	1.0	46	7.2	i	-1.7	0	-0.3	0.61
COc1cc(Cl)ccc1OCc1cc(C(=O)N(C)Cc2cn(C)nc2C)no1	-3	-13	-0.9	-11	-1.0	i	3.4	0	0.1	0.71
CCOC(=O)c1ccc(NC(=O)C(CC)CC)cc1	.	.	.	-2	.	.	-0.1	.	-0.5	0.72
